# AID504770 = E. coli YBA685 growth inhibition, screen for V. cholerae RctB inhibitors; z-score (no concentration beside the values); E. coli YBA685 rctB-dependent plasmid, OD600 growth, 3 h; stronger effect = lower value; 130,000 compounds, 0.27% hits; AID 504770;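 active = z-score under -2 on both plates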;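 note: wells of about 30 µL received 100 nL stock; score is relative to mean and SD of the test wells; the first replicate is given; strong numbers were not always called active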
# Ba CapD inh = CapD enzyme inhibition | purified CapD enzyme, fluorescence intensity read-out; stronger effect = lower value; some hits fall short of the stated cut | z-score (no concentration beside the values) | 140,000 compounds, 0.23% hits;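 active = z-score under -4 in either of two replicates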;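 note: stock transfer was 100 nL into about 40 µL; score is relative to mean and spread of the plate; one replicate is shown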
# An asterisk follows results filed as active; nt = no result given.
SMILES,AID504770,Ba CapD inh
O=C(CS(=O)(=O)c1ccc(C(F)(F)F)cc1Cl)Nc1ccc(F)cc1,-0.75,-0.15
OCc1nc2ccccc2n1CC1CC1(Cl)Cl (centres undefined),-0.3,-0.83
N=C1SCC(=O)N1C(=O)c1ccccc1,-0.9,-1.5
NS(=O)(=O)c1ccc(NC(=O)CSC2CCCCC2)cc1,-0.05,nt
CCN(CCCNc1nc(-c2cc(OC)ccc2OC)no1)c1ccccc1,0.1,0.62
C=CCN1C(=O)NC2(CCCCC2)C1=O,-0.3,0.085
O=C(Nc1cccc(C(F)(F)F)c1)C1CCC(=O)N1Cc1cccs1 (centres undefined),nt,-0.06
O=C(Nc1ccc(Cl)cc1)C(O)c1ccccc1 (centres undefined),-0.15,0.34
Cc1oc(C(=O)O)cc1COc1ccccc1Cl,-0.2,0.57
Oc1ccc(-c2ncc(-c3cnccn3)c(-c3ccncc3)n2)cc1,nt,-1.3
CCOC(=O)COc1c(Br)cc(C=C2C(=O)N(C)C(=O)N(C)C2=O)cc1OC,nt,0.51
COC(=O)C1C(=O)NC(SCC(=O)Nc2ccc(Br)cc2)=C(C#N)C1c1ccccc1Cl (centres undefined),nt,-0.38
CCOC(=O)CCc1c(C)c(C#N)c2nc3ccccc3n2c1Cl,-0.1,-0.28
Cc1nc2cc(-n3c(O)c[nH]c3=O)ccc2s1,0.75,nt
CC(=O)NC1=C(O)CC(C)(C)CC1=O,nt,-0.17
CC(=O)OCC(=O)[C@H]1CCC2C3CCC4=CC(=O)CC[C@]4(C)C3CC[C@@]21C (some centres undefined),0.6,0.15
CC(C(=O)NC1CCCC1)n1cc(Br)ccc1=O (centres undefined),0.25,nt
CN(C)c1ccc(/C=C2/SC(=S)N(CN3CCCC3)C2=O)cc1,nt,-1.4
CNC(=O)Nc1ccc(C(C)(C)C)cc1Br,-0.9,0.41
Cc1oc(-c2ccc(Cl)cc2)nc1CS(=O)CC(=O)NC(C)C (centres undefined),0.25,-0.065
NC(=O)c1cc(S(=O)(=O)N2CCc3ccccc32)cs1,0.4,0.01
CCOC(=O)c1c(CSc2nnc(Cc3csc(C)n3)o2)nc2ccccc2c1C,-0.35,nt
O=C(Oc1ccc2oc(=O)sc2c1)c1ccc(Br)cc1,-0.4,0.18
COc1ccc(S(=O)(=O)N(CC(=O)Nc2cccc(C(F)(F)F)c2)c2ccc(Cl)cc2)cc1,nt,0.085
COc1ccc(C(=O)NC(C)c2nc3ccccc3[nH]2)cc1OC (centres undefined),-0.85,-0.3

# Profiles from above.
# `O=C(CS(=O)(=O)c1ccc(C(F)(F)F)cc1Cl)Nc1ccc(F)cc1` is listed as AID504770: -0.75; Ba CapD inh: -0.15
# `Cc1nc2cc(-n3c(O)c[nH]c3=O)ccc2s1` is listed as AID504770: 0.75; Ba CapD inh: nt

# Further entries:
SMILES,AID504770,Ba CapD inh
COc1ccc(Oc2c(C(F)(F)F)oc3cc(OC(C)C(=O)OC(C)C)ccc3c2=O)cc1 (centres undefined),nt,-0.51
Cc1ccc(C)c(N2CC(O)(c3ccc([N+](=O)[O-])cc3)[N+]3=C2SCCC3)c1 (centres undefined),nt,-0.21
CCOC(=O)c1c(C)n(-c2ccccc2)c2c1cc(OC(=O)c1cccc(C)c1)c1ccccc12,nt,0.37
CCOC(=O)c1c(CSc2n[nH]c(=O)n2CC)nc2ccccc2c1C,0.05,nt
CCCCc1nnc(NC(=O)CCN2C(=O)/C(=C/c3ccc4c(c3)OCO4)SC2=S)s1,nt,0.03
O=C(Nc1cccc(C(F)(F)F)c1)c1cc2cc3ccccc3nc2s1,nt,0.3
COC(=O)c1ccc(COC(=O)C2COc3ccccc3O2)cc1 (centres undefined),0.25,nt
CCOc1ccccc1NC(=O)CN1C(=O)/C(=C/c2cc(OC)c(OC)c(OC)c2)SC1=S,nt,0.12
CCN(C1CCCCC1)S(=O)(=O)c1ccc(S(=O)(=O)NC2CC2)cc1,0.85,nt
Cc1ccc(N=Cc2c(O)n(C)c3ccccc23)cc1,0.35,nt
CCc1cccc(CC)c1N=C=S,0.7,nt
CCc1ccc(NC(=S)N(CCN2CCOCC2)Cc2ccccc2F)cc1,-0.85,-0.05
CC(=O)Nc1ccc(S(=O)(=O)C(C#N)c2nc3ccccc3nc2NCCN2CCOCC2)cc1 (centres undefined),0.1,nt
C=C1CCC(OC(C)=O)C2(C)CCC3C(C)C(=O)OC3C12O (centres undefined),-0.05,0.42
O=C(/C=C/c1ccco1)NC(=S)NC12CC3CC(CC(C3)C1)C2,-0.2,0.18
Cc1cc(C)nc(NS(=O)(=O)c2ccc(NC(=O)C3CC(=O)N(c4ccccc4)C3)cc2)n1 (centres undefined),0.15,0.28
Cc1ccc(Cl)cc1NC(=O)CC(C(=O)O)N1CCNCC1 (centres undefined),0.85,-0.53
CC(C)Oc1ccc(C(=O)N2CCCC2C(=O)O)cc1 (centres undefined),0.2,nt
CCOC(=O)N1CCN(CC(=O)c2ccc(O)c(C)c2O)CC1,-0.35,nt
CCC1CCc2[nH]c(=S)c(C#N)c(C(F)(F)F)c2C1 (centres undefined),-0.35,95
CCOc1ccc(NC(=O)c2ccc(F)c(S(=O)(=O)N3CCN(c4cccc(C)c4)C(C)C3)c2)cc1 (centres undefined),nt,-1.2
COc1ccc(OC(=O)Nc2ccccc2)cc1,1.8,-0.19
Fc1ccccc1N1CCN(Cc2cc(-c3ccc(Cl)cc3)on2)CC1,nt,-0.31
Cc1nc2ccc3nc(NC(=O)c4ccccc4C)sc3c2s1,0.05,1.3
CC(/C=C/c1ccccc1)=N\n1c(C)cc(C)c(C#N)c1=O,0.45,-1.3
# The list goes on:
SMILES,AID504770,Ba CapD inh
CCCN1CCC(N(C(=O)c2ccc(NC(=O)C(C)(C)C)cc2)C2CC2)CC1,nt,-0.2
COc1ccccc1C1CC(=O)NC(C)=C1C(=O)OC1CCCC1 (centres undefined),-0.4,1.5
N#Cc1ccc(Oc2ncc(C(F)(F)F)cc2Cl)cc1,0.6,-0.28
O=C(Cc1cccc(F)c1)NCC(c1cccs1)N1CCOCC1 (centres undefined),-0.2,nt
CCCCN(C)C(=O)c1cc(-c2ccc(OC)cc2)n[nH]1,0.9,-0.01
CCN(CC)C(=O)CSc1cc(=O)n(C)c2cc(Cl)ccc12,-1.1,0.15
COc1cc(OC)cc(C(=O)N2CCN=C2c2ccccc2)c1,0.2,-0.05
CC(=O)OCC1OC(OC(C)(C)C)C(OC(C)=O)C(OC(C)=O)C1OC(C)=O (centres undefined),2.5,-0.1
CCCn1cnc(N)n1,-0.8,nt
Cc1ccc(N2C(=O)c3ccc(C(=O)N(CCO)c4ccccc4)cc3C2=O)cc1C,2,-1.2
Cc1c(N(C)S(=O)(=O)c2cccc(C(=O)Nc3ccccc3N3CCOCC3)c2)c(=O)n(-c2ccccc2)n1C,0.75,nt
O=C(Nc1ccccc1)N1CCOC12CCN(c1cccc(F)n1)CC2,nt,3.1
CCCCN1C(=O)C(NC(C)=O)c2cc(Cl)ccc21 (centres undefined),0.45,0.24
O=C(CSc1oc(-c2cccs2)nc1S(=O)(=O)c1ccccc1)c1ccccc1,0.2,1.3
CCCCn1c(=O)nc2n(-c3ccc(OCC)cc3)c3ccccc3cc-2c1=O,nt,-0.065
O=S(=O)(c1ccc(F)cc1F)N1CCc2c([nH]c3ccccc23)C1,nt,-0.66
Cc1ccccc1OCC(=O)NC1CCCCC1NC(=O)COc1ccccc1C (centres undefined),0.85,0.17
CC1(C)CN(c2cccc(C#N)c2)C1=O,0.5,-0.71
CC1C(c2ccccc2)N(C)C(c2ccccc2)CC1(O)c1ccc(F)cc1 (centres undefined),-0.9,-0.12
CN1CCN(CCNC(=O)c2cc3c(=O)n(C)c4ccccc4c3n2C)CC1,0.15,-2
O=C(c1ccc2c(Cl)c3c(nc2c1)CCC3)N1CCCCC1,-0.2,0.47
Cc1ccccc1N1CCN(C(=O)OCCn2cccc2)CC1,nt,-0.88
CCc1ccc(N2CC(C(=O)OCC(=O)Nc3ccccc3)CC2=O)cc1 (centres undefined),0,0.09
CC(Oc1ccc(C#N)cc1)C(=O)NN (centres undefined),0.4,nt
CC1CN(C(=O)c2ccccc2Nc2ccc(SC(F)F)cc2)CC(C)O1 (centres undefined),-1.4,nt
# New compounds follow
SMILES,AID504770,Ba CapD inh
CCCS(=O)(=O)c1c(S(=O)(=O)CCC)c2cc(-c3ccncc3)ccn2c1C(=O)c1ccc([N+](=O)[O-])cc1,nt,-0.5
COc1ccccc1-n1c(C23CC4CC(CC(C4)C2)C3)n[nH]c1=S,-0.35,-0.76
CCOc1ccc(C2=NN3C(C2)c2cc(Cl)ccc2OC3c2ccc(N(C)C)cc2)cc1 (centres undefined),nt,-1
S=C(NCc1ccccc1)c1ccccn1,-0.55,-0.9
CC(OC(=O)/C=C/c1ccco1)C(=O)Nc1cccc(C(F)(F)F)c1 (centres undefined),-0.15,nt
COc1ccc(Nc2[nH]nc(NC(=O)c3ccc(S(=O)(=O)N(C)C)cc3)c2C#N)cc1,-0.6,nt
COc1ccc(/C=C/C(=O)NC2CC2)cc1,1.2,-0.065
Cc1nnc(SCC(=O)Nc2ccc(Cl)cc2F)s1,nt,-0.63
O=C(O)C1CCCN1C(=O)C12CC3CCC(CC(C3)C1)C2 (centres undefined),0.45,-0.26
O=C(Nc1ccc(-c2csnn2)cc1)c1ccc(Cl)cc1,-0.1,0.2
O=C(COC(=O)c1cccc(S(=O)(=O)N2CCCC2)c1)Nc1cccc(F)c1,-0.3,nt
Cc1cc(NCc2ccccc2)n2ncnc2n1,0.3,-0.43
O=C(O)c1cc(-c2ccccc2)nc2c1cnn2Cc1ccncc1,-0.4,nt
O=C(O)C1(C2CCC3OCOC3C2)SCCCS1 (centres undefined),-1.1,0.15
CCOC(=O)C1CCN(c2ncnc3c(C)csc23)CC1,-0.55,0.28
COc1ccc(S(=O)(=O)N2C3CCC2CC(NC(=O)C2CC2)C3)cc1 (centres undefined),-0.8,nt
O=C(Nc1ccccc1Br)c1cc(S(=O)(=O)N2CCN(c3cccc(Cl)c3)CC2)ccc1F,nt,-0.48
CC(C)(C)C1=CC2(C=C(C(C)(C)C)C1=O)Nc1cc(Br)ccc1OC2c1ccccc1 (centres undefined),nt,2.2
CCN(C(=O)CSc1ncccn1)c1ccccc1,1.3,-0.41
C#CCSc1n[nH]c(C(C)(C)C)n1,-0.35,-1.2
CSc1nnc(C2CCCN(C(=O)N(c3ccccc3)c3ccccc3)C2)n1C (centres undefined),-0.05,nt
CC1CCCC(C)N1C(=O)Nc1ccc(Cl)c(Cl)c1 (centres undefined),0.5,0.21
O=C(CCCc1ccccc1)c1ccc2c(c1)OCCO2,-1.2,-0.2
O=C(CCSc1ccc(Cl)cc1)Nc1ccc(F)c(F)c1F,0.85,-0.78
O=C(OC1CCCCC1=O)C1CCN(S(=O)(=O)c2cccs2)CC1 (centres undefined),0.1,nt
# Next results follow.
SMILES,AID504770,Ba CapD inh
O=C(Cc1ccc(Cl)cc1)Nc1ccccn1,-0.6,65
CCCCN1C(=O)c2ccc(C(=O)C(C#N)c3nc4ccccc4n3C)cc2C1=O (centres undefined),0.45,nt
CC1CC(C)CN(CCN)C1 (centres undefined),-0.25,nt
CCCN(C(=O)c1ccccc1N)c1c(C)n(C)n(-c2ccccc2)c1=O,-0.65,0.32
Cc1ccc(-n2c(N)c(C(N)=O)sc2=S)cc1C,-1,-2.8
C=CCNC(=O)CN1C(=O)C(CC)Oc2ccccc21 (centres undefined),-0.05,-0.005
CC1=CC2(CCC(C)CC2C(=O)NCc2ccc(Cl)cc2)OC1=O (centres undefined),-0.15,-2.1
Nc1nc(CN2c3cccc4cccc(c34)S2(=O)=O)nc(N2CCCCC2)n1,nt,3.5
Nc1ccc(CCN2CCCCCC2)cc1,-0.05,nt
Cc1ccc(/C=N/N=C2/NC(=O)CS2)o1,-0.45,-3.8
O=C(NC(C(=O)c1ccccc1)n1cccnc1=O)c1ccccc1 (centres undefined),-0.65,nt
Cc1ccc(-c2nnc(Nc3ccccc3)c3ccccc23)cc1S(=O)(=O)N1CCCCC1,-0.45,0.57
Cc1nc2cc(-c3ccc(Cl)cc3)nn2c(C)c1CCC(=O)NO,-0.3,33
C=CCCC(=O)NNC(=O)c1cc(C)[nH]n1,nt,-0.22
COC(=O)c1cc(-c2ccc(N)cc2)nc2ccc(C)cc12,2.1,nt
C=CCn1c(=O)sc2cc(NC(C)=O)ccc21,-0.7,0.22

# Grouped by structure: the entries above containing an NH in an aromatic ring.
SMILES,AID504770,Ba CapD inh
Cc1nc2cc(-n3c(O)c[nH]c3=O)ccc2s1,0.75,nt
COc1ccc(C(=O)NC(C)c2nc3ccccc3[nH]2)cc1OC (centres undefined),-0.85,-0.3
CCOC(=O)c1c(CSc2n[nH]c(=O)n2CC)nc2ccccc2c1C,0.05,nt
CCC1CCc2[nH]c(=S)c(C#N)c(C(F)(F)F)c2C1 (centres undefined),-0.35,95
CCCCN(C)C(=O)c1cc(-c2ccc(OC)cc2)n[nH]1,0.9,-0.01
O=S(=O)(c1ccc(F)cc1F)N1CCc2c([nH]c3ccccc23)C1,nt,-0.66
COc1ccccc1-n1c(C23CC4CC(CC(C4)C2)C3)n[nH]c1=S,-0.35,-0.76
COc1ccc(Nc2[nH]nc(NC(=O)c3ccc(S(=O)(=O)N(C)C)cc3)c2C#N)cc1,-0.6,nt
C#CCSc1n[nH]c(C(C)(C)C)n1,-0.35,-1.2
C=CCCC(=O)NNC(=O)c1cc(C)[nH]n1,nt,-0.22

# Screening data as filed in PubChem.
